NPYLR7 agonist = agonists of mosquito NPYLR7 receptor, primary screen, cell-based, Aedes aegypti, calcium fluorescence, mosquito biting behavior; HEK293T NPYLR7/Galpha15, GCaMP6s calcium fluorescence; activation, % at 10 µM; Aedes aegypti neuropeptide Y-like receptor 7 (NPYLR7); hit rate 0.15% among 270,000; AID 1259423, 2018; in the data active means activation above about 40%;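 further: 0% = vehicle and 100% = reference agonist at the receptor; some compounds past the cut are filed as inactive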
NPYLR7 agonist max-min = second read-out of NPYLR7 agonist, no call of its own (marks repeat the call); activation, %; measured here: Max-Min RFU normalised activation; some inactives read as strong as hits;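 span of the calcium signal over five minutes; 0% = vehicle and 100% = native peptide agonist; compound fluorescence can raise it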
Numbers without * were called inactive; & = joins results of further samples. An excerpt; count on the stated rates, not on these rows.

SMILES	NPYLR7 agonist	NPYLR7 agonist max-min
COc1ccc(OCC(O)CN(Cc2cccc(OC)c2)Cc2ccco2)cc1 (stereo not given)	32	29
CC(C)COCC(O)CN(Cc1ccc(F)cc1)Cc1ccsc1 (stereo not given)	35	24
COc1cc(C)c(C)cc1S(=O)(=O)NCc1ccco1	3	1
CC(C)COCC(CN(Cc1ccccc1)c1ccccc1)N1CCCC1 (stereo not given)	-11&3&4	-16&-2&-2
CCn1cc(-c2cccnc2OC)cn1	-4	-7
CC(C)(C)C(=O)CN1C(=O)NC(C)(c2ccc(Br)cc2)C1=O (stereo not given)	13	5
Cc1ccc(-c2ccnc(N[C@H](C)C(N)=O)n2)c(C)n1	1	-3
Cc1ccsc1S(=O)(=O)N1CCOC2(CNCCOC2)C1 (stereo not given)	12	8
COc1ccc(C)cc1N1CCN(C(=O)c2ccc(Cl)cc2)C(C)C1=O (stereo not given)	-11	-11
Cc1ccc(Cn2c(=O)c(C(=O)NCCN3CCOCC3)nn(-c3ccccc3F)c2=O)cc1	7	13
COCCCN(CC(=O)N(Cc1cccn1Cc1ccccc1Cl)CC(C)C)C(=O)C(C)Cl (stereo not given)	23	22
O=C(O)c1ccc(-c2cccc(CN3CCOCC3)c2)o1	-5	-4
O=C(Nc1ccncc1)C1CC(=O)N(c2ccc(Br)cc2)C1 (stereo not given)	8	2
Cc1ccc(-n2cc(CNC(C)c3ncn[nH]3)c(-c3ccc(F)cc3)n2)cc1 (stereo not given)	0	-4
Cc1ccc(O)c(S(=O)(=O)N2CCN(c3cnc4ccccc4n3)CC2)c1	-12	-13
CCCNC(=O)Cn1nc(-c2cccs2)c2ccccc2c1=O	7	4
COC(=O)CCCC(=O)N1CCCC(C(=O)c2ccc3ccccc3c2)C1 (stereo not given)	6	2
Cc1nc2c(c(N3CCN(S(=O)(=O)N4CCCC4)CC3)n1)CCNC2	8	4
CC(C)Oc1ccc2c(=O)c(-c3ccccc3F)coc2c1	-6	-9
COC(=O)N1CCC(=O)N(C)C[C@H]2COc3ccc(C)cc3[C@H]21	24	30
COc1cccc(-c2nc3ccc(Br)cn3c2NCc2ccccc2)c1	12&29	13&26
COc1ccc(NC(=O)C2CCN(C(=O)[C@@H]3CCCN3C(=O)C34CC5CC(CC(C5)C3)C4)CC2)cc1	5	4
COc1cccc(CC(C2CCN(C(=O)c3cccc(F)c3F)CC2)N(C)C(=O)c2ccsc2)c1 (stereo not given)	7	-3
CCOc1ccc(S(=O)(=O)N2CCN(c3ccc(C)c(Cl)c3)CC2)cc1	0	-7
Cc1ccc(-c2ccccc2CN2CCN3C(=O)CNC(=O)C3C2)o1 (stereo not given)	2	0
CNc1cncc(-c2ccc(S(C)(=O)=O)cc2)n1	3	1
COc1ccccc1C(=O)N1CCN(c2nc(C)nc(C)c2Cc2ccccc2Cl)CC1	11	28
CCN(C)S(=O)(=O)c1c(C)nn(CCc2scnc2C)c1C	0	10
O=C1OC(c2ccccc2)=NC1=C(Sc1ncccn1)c1ccccc1	9	4
CCCn1ncc(C(=O)N2CC[C@@H](c3sccc3C)[C@H](O)C2)c1C	-1	-2
CC1CCN(c2nnc(C(=O)Nc3ccccc3)c3ccccc23)CC1	3	0
CC(=O)NNC(=O)CSc1ncnc2ccccc12	17	11
CC(C)CNC(=O)CSCc1c(Cl)cccc1Cl	-2	-5
O=C(CCc1ccc2c(c1)OCO2)N1CCCC(Nc2ccc(F)c(F)c2)C1 (stereo not given)	2	1
Cc1cccc(N2C(=O)C3C4C=CC(C4)C3C2=O)n1 (stereo not given)	0	-2
Cc1cc(C)n(-c2ccccc2C(=O)N2CCC(O)(c3ccc(Br)cc3)CC2)n1	3	5
CC1CN(c2nc(Cc3ccc(Cl)cc3)ns2)CCN1C(=O)Nc1cccc2ccccc12 (stereo not given)	-12	-14
CC(=O)N(CCN1C(=O)c2ccccc2C1=O)c1ccc(C(C)(C)C)cc1	2	0
CC(C)NC(=O)N(Cc1ccccc1)Cc1c(-c2ccc(F)cc2)noc1N1CCN(C)CC1	13	14
COc1c(F)cc(-c2c(-c3ccccc3)ncn2CCC(C)O)cc1F (stereo not given)	6	-5
Cc1ccc(-n2cccn2)c(CN2CCN(C3CCCC3)C(CCO)C2)c1 (stereo not given)	10	3
COc1cc(-c2ccc3nnc(-c4ccc(OCCCN(C)C)cc4)n3c2)cc(OC)c1OC	11	-2
CCOP(=O)(CCCCNC(=O)c1ncoc1-c1ccccc1)OCC	-14	-20
CNC(=O)NC(=O)CN1C(=O)NC2(CCCCC2C)C1=O (stereo not given)	1	5
COc1ccc(CCOC(=O)[C@@H]2CCCN2S(=O)(=O)c2ccc3c(c2)CN(C(=O)C(F)(F)F)CC3)cc1OC	-4	-11
CCOc1ccc(C(=O)N2C[C@H]3C[C@H](O)[C@H](O)C[C@H]3C2)o1	2	0
COc1ccc(CCN(C)C(=O)c2cc(F)cc(F)c2)cc1OC	-6	-11
COc1ccc(-c2cc(C(C)=O)ccc2N2CCOCC2)c(OC)c1	19	10
CCN1C(=O)C(=C2C=CC(C(F)(F)F)=CN2C)SC1=S	1	0
COc1ccccc1N1CC(C(=O)N2CCC(NC(=O)c3cccnc3)CC2)CC1=O (stereo not given)	7	16
c1ccc2c(c1)CCC(=NNc1nc3ccccc3s1)C2	6	4
CCOc1ccc(C2(O)C(C)[N+]3=C(CCCCC3)N2c2ccc(OC)cc2)cc1 (stereo not given)	5&-13	5&-10
O=C(NCCc1csc2nc(-c3ccc(F)cc3)nn12)c1ccc(Br)o1	-1	-1
Cc1ccccc1NS(=O)(=O)c1ccc(F)cc1[N+](=O)[O-]	3	2
CCc1nc(N2CCNC(C(=O)O)C2)ncc1C (stereo not given)	0	0
COc1c2occc2c(OC)c2c(=O)cc(C)oc12	-15&-4&-3	-29&-5&-3
CCSc1nnc2ccc(-c3ccc(F)cc3)nn12	-15	-13
Cc1ccc2ncn(C3CCN(C(=O)c4cccc5c4OCCO5)CC3)c2c1	7	13
CC1=C(C(N)=O)C(c2cccc([N+](=O)[O-])c2)NC(=O)N1 (stereo not given)	2	5
O=C(Cn1nnc(-c2cccs2)n1)OCc1nc2sc3c(c2c(=O)[nH]1)CCC3	10	9

Reformatted field by field: 2 of the compounds above
compound: c1ccc2c(c1)CCC(=NNc1nc3ccccc3s1)C2
  NPYLR7 agonist: 6	NPYLR7 agonist max-min: 4
compound: CCOc1ccc(C2(O)C(C)[N+]3=C(CCCCC3)N2c2ccc(OC)cc2)cc1 (stereo not given)
  NPYLR7 agonist: 5&-13	NPYLR7 agonist max-min: 5&-10

(list continues)
SMILES	NPYLR7 agonist	NPYLR7 agonist max-min
NC(=S)N1N=C2C(=Cc3cccc([N+](=O)[O-])c3)CCCC2C1c1cccc([N+](=O)[O-])c1 (stereo not given)	2	1
COc1cc(Cl)c(C)cc1N=c1c([N+](=O)[O-])nn(-c2ccccc2)n1O	3	0
Cc1cc(C(=O)OCC(=O)c2cccc([N+](=O)[O-])c2)c2ccccc2n1	3	3
Cc1ccc(NS(=O)(=O)c2ccc(C(C)(C)C)cc2)cc1C	-4	-7
OC1CCCN(CCCn2ccnc2-c2ccc3c(c2)CCO3)C1 (stereo not given)	4	4
Cc1ccccc1NC(=O)N1CCN(c2nc(-c3ccc(C(F)(F)F)cc3)nc(C)c2C(C)C)CC1	9	11
CCCCC(=O)N1CCC2(CC1)SCCN2C(=O)c1ccc(C(C)(C)C)cc1	0	0
COc1ccc(OC)c(C2CCCN2Cn2nc(-c3ccccc3)n(C)c2=S)c1 (stereo not given)	2	8
NC(=O)CSc1ccc(NC(=O)C2CC2)nn1	-2	-4
O=C(NCCn1ncc2c(=O)n(Cc3cccc([N+](=O)[O-])c3)cnc21)c1ccc(C(F)(F)F)cc1	-5	-10
COCC(=O)N1CCC(Oc2ccc(C(=O)N3CCN(c4ccccn4)CC3)cc2)CC1	-1	-7
CCNC(=O)Nc1ccc(N(C)C)c(CN(Cc2ccco2)C(=O)c2ccc(F)cc2)c1	6	13
CNC(=O)c1ccc(=O)n(CC(=O)Nc2ccc(C(F)(F)F)cc2)c1	-3	-3
Cc1n[nH]c(=O)nc1NC1CCCCC1	-5	-8
COc1cccc2cc(C(=O)C3=C(O)C(=O)N(c4nnc(C)s4)C3c3ccc(F)cc3)oc12 (stereo not given)	12	8
CCOc1ccc(C(=O)Nc2c(N)nc(SCc3cc(C)ccc3C)[nH]c2=O)cc1	-2	-3
CN(CC1Cc2ccccc2O1)C(=O)c1cnn2ccn(C)c12 (stereo not given)	15	12
CCCCOc1cccc(C(=O)NC(=S)Nc2cccc(C(C)=O)c2)c1	6	12
CCOc1ccccc1-n1nnnc1SCC(C)C	6	5
CCCc1cc(C(=O)NCc2cccnc2N2CCN(C)CC2)ccn1	-1	-1
CC(Sc1ccc(S(=O)(=O)N(C)C)cn1)C(=O)NCc1cccs1 (stereo not given)	2	0
Cc1cc(N2CCN(S(=O)(=O)c3ccc4c(c3)OCCCO4)CC2)n2ncnc2n1	-1	0
Cc1csc2nc(CN(Cc3ccco3)Cc3cccs3)cc(=O)n12	-2	26
COc1ccccc1Cn1c(C)c(C(=O)Nc2ccc(C)cc2)sc1=O	-5	-2
Fc1ccc(OCCCSc2nnc3ccccn23)cc1	8	14
Cc1cc(C(=O)NN=Cc2ccc(OC(F)F)cc2OC(F)F)c(C)o1	6	0
CCCc1c(C)c2cccc(C)c2[nH]c1=O	-2	5
NC(=O)c1ccccc1NC(=O)c1cccn(OCc2ccccc2F)c1=O	1	-1
O=C(NS(=O)(=O)N1CCCc2ccccc21)c1ccoc1	10	4
CCc1nc2c(OCc3ccc(Cl)cc3Cl)cccn2c1N(C)C(=O)C1CC1	2	0
CNC(=O)[C@@H]1C[C@H]2CN(CCOC)C(=O)c3cccc(c32)N1C(=O)c1cccc([N+](=O)[O-])c1	-1	6
Cc1cccc(-n2nnc3c(=O)n(CC(=O)N(C)c4ccccc4)cnc32)c1	-3	-9
CC(C)NC(=O)c1cc(=O)c(OCc2ccccc2)co1	2	-1
CCOc1ccc(-n2nnnc2CNS(=O)(=O)c2ccc(NC(C)=O)cc2)cc1	7	3
CCCc1cc(C(=O)OC(C)C(=O)Nc2cc(S(=O)(=O)N(C)C)ccc2C)n[nH]1 (stereo not given)	1	4
O=C(O)c1ccccc1OP(=O)(O)O	-10&-2	-18&-10
CC(C)SC(NC(=O)OCc1ccccc1)C(=O)N[C@@H](Cc1c[nH]c2ccccc12)C(N)=O (stereo not given in full)	-5	-8
COc1ccccc1C(=O)NCC(=O)N1CCCC1c1ccccc1 (stereo not given)	0	0
CCOC(=O)c1ccc(N2C(=O)CC(N3CCN(c4cccc(C(F)(F)F)c4)CC3)C2=O)cc1 (stereo not given)	1	0
CC(Nc1ncccc1C#N)c1cccc(C(F)(F)F)c1 (stereo not given)	-26	-23
COc1cccc(C(=O)N(Cc2c(C)nn(-c3ccccc3)c2N2CCN(C)CC2)CC(C)C)c1	0	7
O=C(NCCn1ncccc1=O)c1ccc(-c2ccccc2)cc1	1	0
COc1ccc(CC2c3cc(OC)c(OC)cc3CC[N+]2(C)CCC(=O)OCCCCCOC(=O)CC[N+]2(C)CCc3cc(OC)c(OC)cc3C2Cc2ccc(OC)c(OC)c2)cc1OC (stereo not given)	69*	52*
CN1CCC(Nc2ccc(C(=O)N3CCCCC3)c(Cl)c2)C1=O (stereo not given)	-23	-25
C=CCc1c(O)cc(OC)c2c(=O)c(OC)c(C)oc12	2	-1
Cc1ccc(C(=O)NC(=S)N(C)Cc2ccccc2)cc1	5	1
C=CCN(C(=O)CCC(=O)OCC)C(C)C(=O)c1c(C)c(C(=O)OCC)n(C)c1C (stereo not given)	-7	-5
COc1ccc(CN2CCN(C(=O)NCc3ccccc3)CC2)cc1	19	26
Cc1cc(C)c2ncc(C(=O)NN)c(N)c2c1	-8	-16

18 neighbouring compounds from above:
SMILES	NPYLR7 agonist	NPYLR7 agonist max-min
CNC(=O)[C@@H]1C[C@H]2CN(CCOC)C(=O)c3cccc(c32)N1C(=O)c1cccc([N+](=O)[O-])c1	-1	6
Cc1cccc(-n2nnc3c(=O)n(CC(=O)N(C)c4ccccc4)cnc32)c1	-3	-9
CC(C)NC(=O)c1cc(=O)c(OCc2ccccc2)co1	2	-1
CCOc1ccc(-n2nnnc2CNS(=O)(=O)c2ccc(NC(C)=O)cc2)cc1	7	3
CCCc1cc(C(=O)OC(C)C(=O)Nc2cc(S(=O)(=O)N(C)C)ccc2C)n[nH]1 (stereo not given)	1	4
O=C(O)c1ccccc1OP(=O)(O)O	-10&-2	-18&-10
CC(C)SC(NC(=O)OCc1ccccc1)C(=O)N[C@@H](Cc1c[nH]c2ccccc12)C(N)=O (stereo not given in full)	-5	-8
COc1ccccc1C(=O)NCC(=O)N1CCCC1c1ccccc1 (stereo not given)	0	0
CCOC(=O)c1ccc(N2C(=O)CC(N3CCN(c4cccc(C(F)(F)F)c4)CC3)C2=O)cc1 (stereo not given)	1	0
CC(Nc1ncccc1C#N)c1cccc(C(F)(F)F)c1 (stereo not given)	-26	-23
COc1cccc(C(=O)N(Cc2c(C)nn(-c3ccccc3)c2N2CCN(C)CC2)CC(C)C)c1	0	7
O=C(NCCn1ncccc1=O)c1ccc(-c2ccccc2)cc1	1	0
COc1ccc(CC2c3cc(OC)c(OC)cc3CC[N+]2(C)CCC(=O)OCCCCCOC(=O)CC[N+]2(C)CCc3cc(OC)c(OC)cc3C2Cc2ccc(OC)c(OC)c2)cc1OC (stereo not given)	69*	52*
CN1CCC(Nc2ccc(C(=O)N3CCCCC3)c(Cl)c2)C1=O (stereo not given)	-23	-25
C=CCc1c(O)cc(OC)c2c(=O)c(OC)c(C)oc12	2	-1
Cc1ccc(C(=O)NC(=S)N(C)Cc2ccccc2)cc1	5	1
C=CCN(C(=O)CCC(=O)OCC)C(C)C(=O)c1c(C)c(C(=O)OCC)n(C)c1C (stereo not given)	-7	-5
COc1ccc(CN2CCN(C(=O)NCc3ccccc3)CC2)cc1	19	26
